Screening data: PubChem BioAssay, ICCB-Longwood Screening Facility, Harvard Medical School
PV pol inh: inhibitors of poliovirus RNA polymerase binding and polymerization; 150,000 tested, 0.66% active; P03300; poliovirus polymerase elongation, fluorescence polarization; hits give low values; AID 588519; % elongation, % (compound at 16.7 µg/mL); in the data active = % elongation below about 90%; note: some results filed as inactive read as strong as hits
Target sequence (P03300 1749-2209 limits assumed): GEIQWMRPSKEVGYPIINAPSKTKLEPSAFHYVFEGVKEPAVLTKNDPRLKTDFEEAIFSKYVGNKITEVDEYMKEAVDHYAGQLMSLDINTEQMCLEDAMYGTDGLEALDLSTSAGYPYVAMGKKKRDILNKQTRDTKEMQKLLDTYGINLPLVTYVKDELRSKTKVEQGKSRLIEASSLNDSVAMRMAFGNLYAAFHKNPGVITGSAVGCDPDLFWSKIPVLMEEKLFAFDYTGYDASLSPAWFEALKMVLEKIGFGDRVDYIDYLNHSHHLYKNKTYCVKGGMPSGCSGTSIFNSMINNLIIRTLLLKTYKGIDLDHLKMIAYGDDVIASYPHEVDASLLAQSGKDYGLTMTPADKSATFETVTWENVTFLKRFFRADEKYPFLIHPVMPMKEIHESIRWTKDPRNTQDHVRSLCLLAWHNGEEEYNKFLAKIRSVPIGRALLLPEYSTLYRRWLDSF
MbtI inh: inhibitors of Mycobacterium tuberculosis siderophore enzyme MbtI; P9WFX0; purified MbtI enzyme, fluorescence intensity read-out; inhibition, %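 (about 17 µg/mL by stock and volumes)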; 100,000 tested, 0.89% active; AID 493033;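 active = above 50% in both replicates, above 80% if mildly self-fluorescent; inactive = the rest, strongly fluorescent compounds included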;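 note: 0% = mean of negative and 100% = mean of positive controls; one replicate is shown; some compounds called inactive have numbers as strong as hits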
Mtb MenB inh: Mtb MenB enzyme inhibition. P9WNP5. MenB enzyme assay, absorbance read-out; some hits fall short of the stated cut. inhibition, %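 (about 12 µg/mL by stock and volumes)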. 100,000 tested, 0.43% active. AID 540299;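 active = mean of two replicates above 30%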;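 note: 0% = no compound and 100% = wells with inactive enzyme; the first replicate is given; strong numbers were not always called active; inactives centre near -10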
Target sequence (P9WNP5 whole entry, looked up): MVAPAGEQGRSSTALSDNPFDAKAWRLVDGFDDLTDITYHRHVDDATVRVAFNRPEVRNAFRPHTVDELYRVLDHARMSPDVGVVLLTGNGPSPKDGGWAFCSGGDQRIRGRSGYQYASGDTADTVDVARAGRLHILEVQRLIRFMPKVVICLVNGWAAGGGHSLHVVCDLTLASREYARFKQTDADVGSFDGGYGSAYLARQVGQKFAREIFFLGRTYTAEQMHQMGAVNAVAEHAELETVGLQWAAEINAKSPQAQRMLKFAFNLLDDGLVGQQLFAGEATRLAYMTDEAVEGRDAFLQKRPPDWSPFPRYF
PV pol inh intensity: second read-out of PV pol inh, no call of its own (marks repeat the call); % elongation; measured here: total intensity read-out; formula for this scale not given here;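 total fluorescence in place of polarization; lower means less elongation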
An asterisk follows results filed as active; nt = not tested or not shown; & = joins results of further samples.

SMILES	PV pol inh	PV pol inh intensity	MbtI inh	Mtb MenB inh
CC(C)NC(=O)NC(=O)c1ccccc1	104	102	-6	-36
CCC(=O)N1c2ccc(S(=O)(=O)NCc3ccccc3)cc2CC1C (stereo not drawn)	98	105	0	1
CNC(=S)N1CCN(c2ccc(Cl)c(Cl)c2)CC1	99	101	4	-17
CCOC(=O)N1CCC2(CC1)OC(=O)C(C)=C2C(=O)NCc1ccccc1	100	97	2	8
CCN(CC)S(=O)(=O)c1ccc2c(c1)nc(SC1CCOC1=O)n2CC (stereo not drawn)	101	101	4	7
O=C(NC1CCCC1)C1CCN(S(=O)(=O)c2cccc3nonc23)CC1	101	105	12	-4
CCOC(=O)C1CCCN(C(=S)Nc2ccc(OCC)cc2)C1 (stereo not drawn)	106	107	11	-22
Cn1c(=NC(=O)CSCC(=O)N2CCCc3ccccc32)sc2ccccc21	102	109	-8	-24
COC(=O)c1ccc(CSc2nnnn2Cc2ccccc2)cc1	102	103	-14	-22
CC(NC(=O)c1cccc(N)c1)c1ccccc1 (stereo not drawn)	100	99	nt	-15
COc1cc2ncnc(Nc3ccccc3)c2cc1OC	104	100	-31	-15
O=c1cc(C(F)(F)F)[nH]c(=S)[nH]1	102	93	22	-13
COc1ccc(NS(=O)(=O)c2cc(Br)cnc2N)cc1	106	101	-5	-13
NC(=O)SCC(=O)Nc1ccc(Cl)cc1Cl	95	101	nt	-16
O=C(CCn1c(=O)c2cccn2c2ccccc21)Nc1ccccc1F	100	103	0	4
COc1ccc(CCNC(=O)c2ccc(OC)cc2)cc1	103	103	-3	-43
CCCc1cc(=O)[nH]c(/N=C(\N)Nc2cc(Cl)ccc2OC)n1	102	104	-14	-9
CSc1nnc(-c2ccc(S(=O)(=O)N3CCCC3)cc2)n1C	100	100	53	-9
Cc1cccc(N2CCN(C(=O)CCn3c(=S)[nH]c4cc5c(cc4c3=O)OCO5)CC2)c1C	102	100	-5	-8
CN(C)c1ccc(C2NCC(CSc3nc4ccccc4s3)O2)cc1 (stereo not drawn)	104	105	nt	-12

Five consecutive compounds already listed, for reference:
SMILES	PV pol inh	PV pol inh intensity	MbtI inh	Mtb MenB inh
COc1ccc(CCNC(=O)c2ccc(OC)cc2)cc1	103	103	-3	-43
CCCc1cc(=O)[nH]c(/N=C(\N)Nc2cc(Cl)ccc2OC)n1	102	104	-14	-9
CSc1nnc(-c2ccc(S(=O)(=O)N3CCCC3)cc2)n1C	100	100	53	-9
Cc1cccc(N2CCN(C(=O)CCn3c(=S)[nH]c4cc5c(cc4c3=O)OCO5)CC2)c1C	102	100	-5	-8
CN(C)c1ccc(C2NCC(CSc3nc4ccccc4s3)O2)cc1 (stereo not drawn)	104	105	nt	-12

More compounds
SMILES	PV pol inh	PV pol inh intensity	MbtI inh	Mtb MenB inh
Cc1ccc(-c2noc(CN(C(=O)CCc3ccccc3)C(C)C)n2)cc1	100	101	0	-5
COC(=O)c1ccc(S(=O)(=O)NNc2c(Cl)cncc2Cl)n1C	101	101	3	-3
C=CCN(CC=C)C(=S)Nc1ccc(S(=O)(=O)N2CCOCC2)cc1	101	98	-1	-4
COc1ccc(NC(=O)c2ccccc2OC)cc1OC	104	97	1	-56
O=S(=O)(c1ccc(-n2cccn2)cc1)N1CCCC2CCCCC21 (stereo not drawn)	103	96	-5	-17
COc1cc(-c2cc(NC(=O)Cc3noc4ccc(C)cc34)on2)cc(OC)c1OC	105	103	-8	-37
COC(=O)C(c1ccccc1)C1(O)CC(C)N(C)CC1C (stereo not drawn)	104	114	nt	11
O=C1CC(c2ccccc2)c2c(ccc3ccccc23)N1 (stereo not drawn)	101	104	44	-3
COc1ccc(C(=O)Nc2nnc(-c3ccccc3)o2)cc1OC	123	127	nt	-3
C=CCn1c2ccccc2c2nnc(SCC(=O)OCN3C(=O)c4ccccc4C3=O)nc21	104	100	-5	-46
CC(=O)N1Cc2ccccc2CC1C(=O)O (stereo not drawn)	101	100	-2	nt
O=C(O)c1ccc(OCc2occc2C(=O)O)cc1	98	102	-19	-19
Cn1c(=O)n(C)c2cc(-c3nc4sc5c(c4c(=O)[nH]3)CCC5)ccc21	100	104	-1	6
CCN(C(=O)Cn1nc(C)n2c(cc3cc(C)ccc32)c1=O)c1ccccc1	106	111	80	-18
Cc1cc(C)n(CCS(=O)(=O)c2ccc(Cl)cc2)n1	104	106	-12	-16
COc1ccc(NC(=O)c2c(C)oc3ccc(O)c(CN(CC(C)C)CC(C)C)c23)cc1	103	103	14	-3
CC1CCCC(NC(=O)COC(=O)c2ccccc2C(F)(F)F)C1C (stereo not drawn)	104	103	-8	nt
CC1=CC(C)C2C(=O)N(CCC[N+](C)(C)C)C(=O)C2C1 (stereo not drawn)	100	103	-1	-3
O=C(NCc1cccc(Br)c1)C1CCCN(c2nnc(N3CCCC3=O)s2)C1 (stereo not drawn)	103	103	-2	-11
O=C1c2ccccc2C(=O)c2c1nc1n2CCCC1	98	100	3	-20
O=C1CCCN1c1nc(-c2ccccc2)cs1	97	100	13	-3
CN(C)C(=O)Oc1cccc([N+](C)(C)C)c1	102&103	103&103	-5&-11	2&4
CC(=O)OCC12COC(C)C(C1)C(C)=CC2C (stereo not drawn)	105	103	-4	-50
O=C(NC1CCCCC1)C(C(=O)c1ccccc1)n1ccccc1=O (stereo not drawn)	101	112	nt	3
COc1ccc(OC)c(S(=O)(=O)NCc2nc(N)n(S(=O)(=O)c3cc(OC)ccc3OC)n2)c1	103	98	1	8
Cn1/c(=N/N=C/c2ccc(OCC(N)=O)cc2)sc2ccccc21	99	102	4	-23
CCC(C(=O)Nc1nc2nc(C)c(Cl)c(=O)n2[nH]1)c1ccccc1 (stereo not drawn)	100	102	-7	3
O=C(O)COc1ccccc1/C=N/N1CCN(Cc2ccc(Cl)cc2)CC1	102	101	nt	-2
Cc1ccc(N2C(=N)S/C(=C/c3sccc3C)C2=O)cc1C	99	104	6	-29
C=CC(=O)N(CC)CC	95	96	25	-19
Cc1noc2ncnc(NCCCN(Cc3ccccc3)C(C)C)c12	103	103	-9	-25
CC(=O)N1CCC2(CC1)OC(=O)C(C)=C2C(=O)NCc1ccccc1	104	103	-18	1
C=CCn1c(=S)sc2c(=O)n(/N=C/c3ccc(Cl)cc3Cl)c(C)nc21	106	112	-6	-4
Cc1cccc(C(=O)Nc2ccccc2C(=O)N2CCOCC2)c1	102	104	-16	-82
CN(N)C1=NS(=O)(=O)c2ccccc21	100	100	-6	9
O=C(Cn1nc(-c2ccccc2)ccc1=O)NCc1cccs1	104	106	12	3
O=c1c(I)cn(Cc2ccccc2)c(=O)n1Cc1ccccc1	101	96	3	-33
O=C1c2ccncc2C(=O)N1CNc1ccccc1	101	108	-3	4
Cc1ccccc1C(=O)NC1CCN(CC(=O)N2CCCCC2C)CC1 (stereo not drawn)	102	102	8	-16
CCN(CC)c1nc2ccccc2c(=O)s1	111	109	-8	-36
C=C(C)c1cccc(C(C)(C)NC(=O)NCC2CCCO2)c1 (stereo not drawn)	105	106	nt	-10
O=C(Cn1nc(C(=O)O)c2ccccc2c1=O)NC(=O)NCc1ccco1	102	109	-36	-20
COC(=O)c1ccccc1NC(=O)Cc1ccsc1	102	105	24	-13
Cc1ccc(-c2noc(C(C)c3ccc(CC(C)C)cc3)n2)cc1 (stereo not drawn)	98	115	-6	11
CCOC(=O)/C(=C(/C)N1CCCC1)P(=S)(N1CCOCC1)N1CCOCC1	98	109	1	-47
CC(C)C(NC(=O)C1COc2ccccc2O1)c1nc2ccccc2[nH]1 (stereo not drawn)	102	105	-3	-12
Cc1c(/C=N/n2cnnc2)c2ccccn2c1C(=O)c1ccc(F)cc1	100	100	0	nt
CCC1=Nc2cc(C(=O)NCCCN3CCN(C)CC3)ccc2Sc2ccccc21	104	105	-4	4
Cc1cc(C(N)=O)c2ccccc2n1	99	103	-4&8	nt
O=S(=O)(CCN1CCN(c2ccccn2)CC1)c1ccc(F)cc1	102	103	-5	11
CCOC(=O)c1sc(N(Cc2ccccc2)C(=O)CN2CCN(C(C)=O)CC2)nc1C	103	107	8	8
O=C(O)CSCC(=O)Nc1ccccc1	104	110	nt	-7
CCS(=O)(=O)N1CCC(C(=O)Nc2nnc(-c3ccccc3)o2)CC1	102	109	2	-15
CS(=O)(=O)N(CC(=O)NCc1ccco1)c1ccccc1Br	103	106	-9	28
Clc1ccc(C2=NN(Cc3ccccc3)CC2)s1	104	104	21	-18
CC1CCN(CC(O)COc2ccccc2)CC1 (stereo not drawn)	102	110	5	-24
Cn1cc(NC(=O)Nc2cccnc2)c2ccccc2c1=O	103	100	65	-26
CC(=O)Nc1ccc2oc(-c3ccc(C#N)cc3)cc(=O)c2c1	97	103	-2	12
CC(C)OC(=O)C(C)Nc1n[nH]c(=O)[nH]c1=O (stereo not drawn)	108	105	nt	0
Cc1ccc[n+](CC(=O)c2cccs2)c1	103	103	15	28

Shown with two lines to a compound: entries from further up.
Under each structure – PV pol inh, PV pol inh intensity, MbtI inh, Mtb MenB inh
C=CCn1c(=S)sc2c(=O)n(/N=C/c3ccc(Cl)cc3Cl)c(C)nc21
  106, 112, -6, -4
Cc1cc(C(N)=O)c2ccccc2n1
  99, 103, -4&8, nt
Cc1c(/C=N/n2cnnc2)c2ccccn2c1C(=O)c1ccc(F)cc1
  100, 100, 0, nt
CC(C)C(NC(=O)C1COc2ccccc2O1)c1nc2ccccc2[nH]1 (stereo not drawn)
  102, 105, -3, -12
C=CCN(CC=C)C(=S)Nc1ccc(S(=O)(=O)N2CCOCC2)cc1
  101, 98, -1, -4
CCC(C(=O)Nc1nc2nc(C)c(Cl)c(=O)n2[nH]1)c1ccccc1 (stereo not drawn)
  100, 102, -7, 3
COC(=O)c1ccccc1NC(=O)Cc1ccsc1
  102, 105, 24, -13

More compounds follow:
SMILES	PV pol inh	PV pol inh intensity	MbtI inh	Mtb MenB inh
Oc1cccc(/C=N/n2cnnc2)c1	100	103	12	-17
O=C(c1cccs1)N1CCN(c2ccccn2)CC1	99	101	-28	-31
Cc1ccccc1C(=O)N/C(=C/c1ccc(-c2cccnc2Cl)o1)C(=O)NC1CC1	104	101	-7	-53
COc1ccc(NC(=O)NCCC2=CCCCC2)cc1	103	100	0	2
CC1Sc2ccc(S(=O)(=O)CCC(=O)N(C)Cc3ccccc3)cc2NC1=O (stereo not drawn)	101	101	-21	-4
O=C(COC(=O)Cc1ccc(Cl)cc1)NCC1CCCO1 (stereo not drawn)	102	102	-3	nt
COCC(C)NC(=O)c1ccc(NS(=O)(=O)c2ccccc2)cc1 (stereo not drawn)	100	101	-1	1
O=C(Cc1cn2ccsc2n1)NCCc1ccc(F)cc1	103	105	-3	nt
CCc1ccc(C2NC(=O)NC(C)=C2C(=O)Nc2ccccc2)cc1 (stereo not drawn)	103	100	2	-11
CCC(Sc1nc2ncccc2[nH]1)C(=O)NC1CCC(C)CC1 (stereo not drawn)	103	106	-3	-13
Cc1ccccc1OCC(=O)O/N=C(\N)c1ccncc1	102	102	-3	-26
O=C(N/N=C/c1cccs1)c1ccc(N2CCCC2=O)cc1	102	102	8	-62
CCN(CC)Cn1[nH]c(=O)ccc1=O	99	103	10	-28
COc1cccc(/C=N/NC(=O)c2cccc(C)c2)c1O	104	107	-11	-47
Cc1ccc(C(=O)NC(C(C)C)C(C)C)cc1	100	103	-16	-11
O=C1CC(NC2CCN(S(=O)(=O)c3ccc(Cl)cc3)CC2)C(=O)N1 (stereo not drawn)	102	101	5	7
Cc1c(C(=O)N2CCOCC2)[nH]c2c1C(=O)CC(c1ccc(Cl)cc1)C2 (stereo not drawn)	103	107	-1	-39
c1ccc(Nc2nc3nonc3nc2N2CCOCC2)cc1	99	101	9	-40
C=CCN1C(c2ccccc2)=CSC1/N=C/c1ccccc1 (stereo not drawn)	107	106	nt	-8
COc1ccc(NC(=O)C2CCN(C(=O)/C=C/c3ccccc3)CC2)cn1	102	101	8	5
O=C(NCCc1ccccc1)C1CCN(S(=O)(=O)N2CCCCC2)CC1	102	105	-4	12
CCc1c(C)c(C#N)c2[nH]c3ccccc3n2c1=O	99	110	-1	-29
COc1ccc(CCNC(=O)CSc2nnc(CNC(=O)c3c(F)cccc3Cl)o2)cc1OC	104	102	-6	-19
COCc1nnc(NC(=O)C2C(C=C(C)C)C2(C)C)s1 (stereo not drawn)	104	100	-9	-26
CSc1ccc(NC(=O)NCCn2cnc3cccnc32)cc1	94	110	-6	-14
CCOC(=O)c1c(NC(=S)NCCn2cc(Br)cn2)sc2c1CCCCC2	98	101	-8	-48
Cc1nn(Cc2ccccc2Cl)c(C)c1C(=O)NCC(C)C	104	104	-11	-30
CCOC(=O)c1ccc(CSc2ccc(Cl)cc2)o1	101	92	46	-10
COC(=O)/C(C#N)=C/c1ccc(OC)cc1	101	101	-9	-30
COc1cccc(-c2nc3cc(OC)c(OC)cc3c(=O)o2)c1	102	96	12	-13
Cc1nc2ccn(Cc3cccnc3)c(=O)c2cc1C(=O)NCCCc1ccco1	98	101	114	-11
CN(C)S(=O)(=O)c1ccc(S(=O)(=O)N2CCC3(CC2)OCCO3)cc1	106	107	10	0
O=C1CN=C(Nc2ccccc2Cl)N1Cc1ccccc1	103	99	-5	-22
CCOc1cc(C2NS(=O)(=O)N=C3CCCN32)ccc1OCCOc1cccc(C)c1 (stereo not drawn)	105	105	-1	3
Cc1n[nH]c(C)c1NC(=O)CN(C)C(=S)NC1CC2CCC1C2 (stereo not drawn)	103	101	4	-6
